VDR inh = inhibitors of human vitamin D receptor; P11473; VDR-SRC2-3 peptide fluorescence polarization, 2 h; Potency, µM, for inactives: max response, negative = inhibition, usual class: inhibitors; 400,000 tested, 0.93% active; active = well fitted inhibition curve with a large enough effect; inconclusive = small, poorly fitted or top-dose-only effect, or another doubt; inactive = no such curve, though single readings can be large or run the other way; note: series mostly up to about 120 µM
Target sequence (P11473 whole entry, looked up): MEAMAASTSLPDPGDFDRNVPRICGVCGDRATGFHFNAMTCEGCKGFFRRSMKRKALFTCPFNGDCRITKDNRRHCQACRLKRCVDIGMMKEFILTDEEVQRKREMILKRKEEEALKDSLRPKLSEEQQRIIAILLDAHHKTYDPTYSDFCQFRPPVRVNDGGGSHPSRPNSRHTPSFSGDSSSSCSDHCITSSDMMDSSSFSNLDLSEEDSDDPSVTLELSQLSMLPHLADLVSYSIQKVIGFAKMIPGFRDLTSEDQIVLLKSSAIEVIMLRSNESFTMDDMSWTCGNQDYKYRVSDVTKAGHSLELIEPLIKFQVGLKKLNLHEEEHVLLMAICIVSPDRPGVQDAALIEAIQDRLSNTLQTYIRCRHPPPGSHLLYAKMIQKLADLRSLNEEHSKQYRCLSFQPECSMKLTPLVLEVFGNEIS
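Two reagent solutions held at 4 deg C in the dark were dispensed, compounds pinned at 23 nl, and the mixture incubated 2 h at room temperature. Read-out: fluorescence polarization of VDR–SRC2-3 peptide binding.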
Active calls of the source: *; ? = inconclusive; & = joins results of further samples. % is set by controls: 0 for no effect and ±100 for the full control effect; potency is the fitted concentration of half-maximal effect. Only part of the results is shown; the hit share may differ from the screen's.

SMILES	VDR inh
COc1ccc(C(C#N)N2N=C(c3ccccc3)CC2c2ccccc2)cc1OC (stereo unspecified)	-11%
O=C(Nc1ccc(CSc2ccccc2)cc1)c1ccc(CN2CCOCC2)cc1	-8%
CCCC(C1=C(O)CC(C)(C)CC1=O)C1C(=O)CC(C)(C)CC1=O (stereo unspecified)	-12%
COc1cc(OC)c(/C=N/NC(=O)c2ccncc2)c(OC)c1	-8%
CCSc1nnc(NC(=O)c2cccc(S(=O)(=O)N(C)c3ccccc3)c2)s1	-8%
CCCn1nnnc1NC(=O)c1ccc2ccccc2c1	-27%
CC1(C)CC(O)C(C)(C)N1O (stereo unspecified)	-5%
COc1ccc(NC(=O)C2CCC(N3C(=O)C4C5C=CC(C5)C4C3=O)CC2)cc1 (stereo unspecified)	1%
CCc1c(C)nc(SCc2ccccn2)[nH]c1=O	13%
CCOc1ccc2[nH]c(=O)c(CN(Cc3cccs3)Cc3nnnn3C(C)(C)CC)cc2c1	10%
COC(=O)/C=C1/S/C(=N/NC(=O)c2ccc(OC)cc2)NC1=O	-2%
O=C(Nc1ccc(Nc2ccccc2)cc1)c1c(F)c(F)c(F)c(F)c1F	11%
CCC(CC)C(=O)NC1CC(=O)N(c2ccc3c(c2)OCCO3)C1 (stereo unspecified)	0%
N#C/C(=C/c1ccc(N2CCCCC2)o1)C(=O)Nc1ccc(Cl)cc1	10%
CC(=O)NNC(=O)c1csc(Cc2c(Cl)sc3ccc(Cl)cc23)n1	1%
O=c1cc(CSc2ccc(Cl)cc2)nc2nc[nH]n12	-3%
Cc1cccc(C)c1NC(=O)NC1(C(=O)N2CCCC2)CCCCC1	-7%
COCCN(C(=O)CCC(=O)Nc1nccs1)C(C(=O)NC(C)(C)C)c1ccc(Cl)cc1 (stereo unspecified)	15%
CCCCSc1nc2c(cnn2-c2ccc(Cl)cc2)c(=O)[nH]1	-2%
Cc1cc(=O)oc2cc(O)c(O)cc12	3%
COc1ccc(C(=O)O/N=C(\N)c2ccc(Br)cc2)cc1	15%
CCCCCn1c(SCC(=O)c2ccccc2)nc2cc(C(=O)NCC3CCCO3)ccc2c1=O (stereo unspecified)	4%
N/C(Cc1ccc([N+](=O)[O-])cc1)=N\OC(=O)COc1cccc2ccccc12	-5%
COc1ccccc1N1CCN(C(=O)c2cn(-c3ccccc3)nc2-c2cccnc2)CC1	8%
CC(NC(=O)COC(=O)/C=C/c1cccc(C(F)(F)F)c1)c1ccccc1 (stereo unspecified)	11%
Fc1ccc2c(c1)c1n[nH]c(=S)nc1n2CCc1ccccc1	?
Cc1nc(-c2ccccc2)sc1C(=O)CSc1ccc(Br)cc1	-13%
Cc1ccc(CN2C(=O)CCC2C(=O)NCCN(CC(C)C)CC(C)C)cc1 (stereo unspecified)	-12%
Cc1nn(-c2ccccc2)c(C)c1C(=O)OC/C(O)=C(\C#N)c1nc2ccccc2[nH]1	9%
Cc1cc(NC(=O)C2CCN(S(=O)(=O)c3c(C)noc3C)CC2)ccc1Br	27%&-7%
COc1ccccc1CNC(=O)C1CC(=O)N(C2CCCC2)C1 (stereo unspecified)	4%
COc1cccc(N2CCN(S(=O)(=O)c3cn(C)cn3)CC2)c1	-27%
CCc1cccc(C)c1NC(=O)c1ccccc1	13%
CCN(CC)Cc1c(O)ccc2c1O/C(=C\C=C\c1ccccc1)C2=O	-4%
COC1=C(c2ccccc2)C(=O)c2ccccc2C1=O	-20%
O=C(Nc1cccnc1)C1OCCc2ccccc21 (stereo unspecified)	2%

Part of the list above in order of molecular weight, smallest number first.
SMILES	VDR inh
Cc1cc(=O)oc2cc(O)c(O)cc12	3%
O=C(Nc1cccnc1)C1OCCc2ccccc21 (stereo unspecified)	2%
COC1=C(c2ccccc2)C(=O)c2ccccc2C1=O	-20%
COc1ccccc1CNC(=O)C1CC(=O)N(C2CCCC2)C1 (stereo unspecified)	4%
Fc1ccc2c(c1)c1n[nH]c(=S)nc1n2CCc1ccccc1	?
CCCCSc1nc2c(cnn2-c2ccc(Cl)cc2)c(=O)[nH]1	-2%
COc1cccc(N2CCN(S(=O)(=O)c3cn(C)cn3)CC2)c1	-27%
CCN(CC)Cc1c(O)ccc2c1O/C(=C\C=C\c1ccccc1)C2=O	-4%
CC(NC(=O)COC(=O)/C=C/c1cccc(C(F)(F)F)c1)c1ccccc1 (stereo unspecified)	11%
N/C(Cc1ccc([N+](=O)[O-])cc1)=N\OC(=O)COc1cccc2ccccc12	-5%
Cc1ccc(CN2C(=O)CCC2C(=O)NCCN(CC(C)C)CC(C)C)cc1 (stereo unspecified)	-12%
Cc1nc(-c2ccccc2)sc1C(=O)CSc1ccc(Br)cc1	-13%
Cc1nn(-c2ccccc2)c(C)c1C(=O)OC/C(O)=C(\C#N)c1nc2ccccc2[nH]1	9%
Cc1cc(NC(=O)C2CCN(S(=O)(=O)c3c(C)noc3C)CC2)ccc1Br	27%&-7%
CCCCCn1c(SCC(=O)c2ccccc2)nc2cc(C(=O)NCC3CCCO3)ccc2c1=O (stereo unspecified)	4%

Other results follow:
SMILES	VDR inh
COC(=O)C1=C(C)N(Cc2ccccc2)C(=NCCCCO)N[C@H]1c1cccc(C(F)(F)F)c1	-13%
O=S(=O)(c1cccc(Cl)c1)c1nnn2c1nc(NC1CCCCCC1)c1sccc12	2%
O=C(OCc1ccccc1)N1CCOCCN(C(=O)OCc2ccccc2)CCOCC1	-13%
Cc1cc(OCC(=O)Nc2ccc(C(=O)OC3CCCCC3)cc2)cc(C)c1Cl	1%
COc1cc(CNc2nnnn2C)ccc1OCc1ccc(F)cc1Cl	-4%
CC1=C(C(=O)Nc2ccccc2)C(c2coc3ccccc3c2=O)C2=C(CCCC2=O)N1 (stereo unspecified)	-22%
Cc1ccccc1CN1c2ccccc2-c2nc(SCC(=O)NCCc3ccccc3)ncc2S1(=O)=O	-7%
CCc1ccc(/C=N\NC(=O)c2ccc(Br)o2)s1	-1%
COc1cccc2cc(C(=O)NCCc3c[nH]c4ccccc34)c(=O)oc12	-24%
O=C(Nc1cc(S(=O)(=O)N2CCCCC2)ccc1Cl)c1ccccc1NS(=O)(=O)c1ccc(F)cc1	-2%
O=C(Cn1cc(C(F)(F)F)ccc1=O)NCc1ccc(F)cc1	-11%
COc1cccc(-n2c(SCC(=O)NC(C)(C)C)nnc2-c2ccoc2C)c1	-3%
CCCCOc1cc(C)nc(NCc2ccccc2)n1	1%
O=C(COC(=O)c1ccc(F)cc1F)c1ccc[nH]1	-13%
COc1ccc2c(CC(=O)N[C@@H](Cc3c[nH]c4ccccc34)C(=O)O)cc(=O)oc2c1	-3%
O=C(Cc1cccc(C(F)(F)F)c1)OCC(=O)N1CCN(S(=O)(=O)c2ccc(Cl)cc2)CC1	-1%
O=C(CCN1C(=O)c2ccccc2S1(=O)=O)NCc1ccco1	-8%
O=C(COc1ccc(=O)n(-c2ccccc2)n1)Nc1ccccc1	5%
O=C(CNC(=O)c1ccc(Cl)cc1)OCCN1C(=O)c2ccccc2C1=O	16%
COc1cc(NC(=O)NCC2CCN(Cc3ccccc3C)CC2)cc(OC)c1OC	-7%
COC(=O)C1=C(C(=O)OC)[C@@H]2N(Cc3ccccc3)c3ccccc3[C@@]23C[C@@H](C(=O)OC)N(C(=O)CC(C)C)C3=N1	-7%
CCC(C)[C@H](NC(=O)Nc1ccc(S(N)(=O)=O)cc1)C(=O)O (stereo partly specified)	-22%
COC(=O)C(NS(=O)(=O)CCl)C(C)C (stereo unspecified)	0%
COc1ccccc1C(=O)NCC(=O)NC(C)CCc1ccccc1 (stereo unspecified)	2%

The last two records of the part above come first, to join the parts:
SMILES	VDR inh
COC(=O)C(NS(=O)(=O)CCl)C(C)C (stereo unspecified)	0%
COc1ccccc1C(=O)NCC(=O)NC(C)CCc1ccccc1 (stereo unspecified)	2%
Cc1ccc(N(C(=O)CNC(=O)c2ccco2)C(C(=O)NCC2CCCO2)c2ccccc2)cc1 (stereo unspecified)	2%
Cc1ccccc1CC(=O)Nc1ccc(S(=O)(=O)N2CCN(C)CC2)cc1	-2%
Cc1cccc(C)c1N=C1NN=C(c2ccccc2F)CS1	-7%
CCOCCn1c(=NC(=O)CSCC(=O)Nc2cc(C)on2)sc2cc(OC)ccc21	10%
Cc1cc2ccccc2c(=O)n1CC(=O)N(C)c1ccc(F)cc1	-7%
Cc1nnc(NN2CCOCC2)[nH]c1=O	1%
COc1cc2ncnc(NCCc3ccccc3)c2cc1OC	-9%
O=C(CSc1nnc(-c2ccccc2)c(-c2ccccc2)n1)NC1CCS(=O)(=O)C1 (stereo unspecified)	22%
COc1ccc(-n2nc3c(N4CCC(C(=O)NCc5ccccc5)CC4)nnc(C)c3c2C)cc1	-7%
COc1cc2c(=O)c(C(=O)c3ccc(C)c(C)c3)cn(Cc3ccccc3)c2cc1OC	10%
Cc1cccc(Cn2cnc3c(NS(C)(=O)=O)c(C)c(C)cc32)c1	23%
CCOC(=O)c1cccc(NC(=O)C(C)n2c(C)c3cnn(-c4ccccc4)c(=O)c3c2C)c1 (stereo unspecified)	0%
O=C(CN1C(=O)c2ccccc2S1(=O)=O)c1ccc(F)c(F)c1	14%
CCCCCSc1nc(O)cc(=O)[nH]1	-27%
Cc1ccc(C)c(NC(=O)COC(=O)c2ccc[n+]([O-])c2)c1	-16%
COc1ccc(C(O)Cn2ccsc2=NC(C)=O)cc1 (stereo unspecified)	-12%
Cc1ccc(NC(=O)CN2CCCC2)cc1Br	0%
CC(C)(C)OC(=O)N1CCC(C(=O)Nc2cccc(C(=O)N3CCOCC3)c2)CC1	-1%
Cc1ccsc1C(=O)Nc1cc(C(C)(C)C)nn1-c1ccccc1	5%
N#Cc1nc(-c2cccs2)oc1NCc1ccccc1Cl	-1%
Cc1ncc(C[n+]2csc(CCOP(=O)(O)OP(=O)(O)O)c2C)c(N)n1	-14%&5%
Cc1ccccc1NC(=O)c1cc(S(=O)(=O)N2CCOCC2)cn1C	-2%
CC(C)(O)C1Cc2cc(/C=C/C(=O)O)c(O)cc2O1 (stereo unspecified)	?
OC12CC3C[C@H](C1)C(N1CCOCC1)[C@@H](C3)C2 (stereo partly specified)	11%
O=C(Nc1ccc2c(c1)OCCO2)C1CCCN1C(=O)Nc1ccc(F)cc1 (stereo unspecified)	2%
CCN(Cc1cnn(C)c1)Cc1nc(C2(c3ccc(C)cc3)CCCC2)no1	8%
Cc1ccc(NC(=O)C(NS(=O)(=O)c2ccc3c(c2)CCC(=O)N3)c2ccccc2)cc1C (stereo unspecified)	2%
CC(C)(C)c1cc(NC(=O)COc2ccc(Br)cc2)n(-c2ccccc2)n1	1%
Cc1cc(C(=O)NNC(=O)C2CCCC2)c(C)o1	-1%
Clc1ccc(-c2cc(CSc3cccc(Cl)c3)on2)cc1	9%
CN(C)CCNC(=O)/C=N/O	-12%
CCCCOC(=O)C1=C(C)NC(=O)NC1c1ccc(N(C)C)cc1 (stereo unspecified)	11%
COc1ccccc1NC(=O)NC1(C(=O)N2CCN(C)CC2)CCCCC1	-2%
C=C(C)c1cccc(C(C)(C)NC(=O)NCCN(CC)CC)c1	-23%
COc1ccc(N2CCCn3c2nc2c3c(=O)n(Cc3ccc(C)cc3)c(=O)n2C)c(OC)c1	5%
O=C(O)c1cc(N/N=C/c2ccncc2)ccc1Cl	-2%
CCCc1cc(=O)[nH]c(SCC(=O)NC2(C#N)CCCCC2)n1	-19%
COc1ccc(/C=C/C(=O)c2ccc(OC)cc2OC)c(OC)c1	-2%
CCC(C)(C(=O)NC1CCCCC1)N(Cc1ccco1)C(=O)CNC(=O)c1ccccc1 (stereo unspecified)	-9%
CCOc1ccc(/C=N/NC(N)=S)cc1	-2%
CCn1c(=O)c2c(nc(SCC(=O)N3CCCC(C)C3)n2C)n(C)c1=O (stereo unspecified)	4%
COc1ccccc1CN1C(=O)[C@@H]2C(CCC(N)=O)NC3(C(=O)Nc4c3ccc(Cl)c4C)[C@@H]2C1=O (stereo partly specified)	1%
O=C(CSc1ccc([N+](=O)[O-])cc1)NCC1CCCCC1	-6%
COc1ccc(C(=O)C2CCCN(C(=O)c3cccnc3SC)C2)c(C)c1 (stereo unspecified)	-11%
COc1ccc(N2CCN(C(=O)COC(=O)CCOc3ccc(C(C)(C)C)cc3)CC2)cc1	-5%
COc1cccc(NC(=O)CSc2nc(C)c(Cc3ccccc3)c(=O)[nH]2)c1	4%
COc1ccc(C(=O)Nc2cccnc2)cc1C(=O)Nc1cccnc1	?
Cc1ccc(C)c(S(=O)(=O)Nc2ccc(C(=O)NCCCN3CCCC3=O)cc2)c1	-20%
CCOc1ccc(N(CC(=O)NCC(C)C)S(C)(=O)=O)cc1	28%
NC(=O)c1ncn([C@@H]2O[C@H](CNCc3c(OCc4ccccc4F)ccc4ccccc34)[C@@H](O)[C@H]2O)n1	12%
N#C/C(=C\c1c(F)cccc1Cl)C(=O)NC1CC1	?
CCOC(=O)N1CCN(C(=O)/C=C/c2ccc([N+](=O)[O-])cc2)CC1	-15%
CCOc1ccccc1-c1nnc(SCc2ccc(Cl)cc2)o1	-3%
Cc1ccccc1C(=O)N1CCN(c2ccc([N+](=O)[O-])c(N3CCOCC3)c2)CC1	-5%
CN(c1cccc(NC(=O)COc2ccc(Cl)cc2Cl)c1)S(C)(=O)=O	1%
O=C(N/N=C/c1ccc([N+](=O)[O-])o1)c1cn2ccc3ccccc3c2n1	-12%
CC(Oc1ccccc1)C(=O)Nc1nnc(S(=O)(=O)N2CCCCC2)s1 (stereo unspecified)	-8%
CC(C)N(C(=O)Nc1ccc2nsnc2c1)C(C)C	14µM*
COC1OC2COC(c3ccccc3)OC2C(O)C1NC(C)=O (stereo unspecified)	17%
O=C(CN(Cc1ccc(F)cc1)C(=O)c1ccco1)NCc1ccc(F)cc1	2%

Later entries:
SMILES	VDR inh
O=C(CCC(=O)c1cccs1)NCc1cccc(C(F)(F)F)c1	-5%
CN(C)c1ccc(/C=C2\C(=N)N3N=C(CC(=O)N4CCCC4)SC3=NC2=O)cc1Br	7%
CCC(C)NC(=O)c1ccc2c(c1)N=C(C)c1cc(C)ccc1S2 (stereo unspecified)	-13%
CN(C)C(CNC(=O)c1cccc(S(=O)(=O)Nc2ccccc2Cl)c1)c1ccccc1 (stereo unspecified)	7%
CCOc1ccc2nc(N3CCC(C(=O)N4CCN(C5CCCCC5)CC4)CC3)sc2c1	?

Assay outcomes from PubChem BioAssay.
